Insulin prom inh = TRM-6 insulin promoter activity inhibition; TRM-6 cells (human fetal islet line), insulin promoter-eGFP reporter, imaging; reporter expression induced with tamoxifen; inhibition, % at 2 µM; actives 0.9% (n = 130,000);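 active = inhibition above the mean plus 3 SD, with well images judged a real hit on visual review, cut at about 60% in these data, passing the limit was not always enough; inconclusive = inhibition over the cutoff but images rejected on review; inactive = inhibition not above the cutoff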
GALR2 ag = GALR2 (human) receptor agonism | actives 0.48% (n = 140,000) | GALR2-expressing cells, agonist activation read-out | O43603 | activation, %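 (tested at 5 µM)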;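 active = above mean plus 3 SD of all compounds, about 5% in these data, not always enough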;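 note: 0% = vehicle buffer wells and 100% = reference agonist at full effect; tested in CHO reporter cells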
Target sequence (O43603 whole entry, looked up): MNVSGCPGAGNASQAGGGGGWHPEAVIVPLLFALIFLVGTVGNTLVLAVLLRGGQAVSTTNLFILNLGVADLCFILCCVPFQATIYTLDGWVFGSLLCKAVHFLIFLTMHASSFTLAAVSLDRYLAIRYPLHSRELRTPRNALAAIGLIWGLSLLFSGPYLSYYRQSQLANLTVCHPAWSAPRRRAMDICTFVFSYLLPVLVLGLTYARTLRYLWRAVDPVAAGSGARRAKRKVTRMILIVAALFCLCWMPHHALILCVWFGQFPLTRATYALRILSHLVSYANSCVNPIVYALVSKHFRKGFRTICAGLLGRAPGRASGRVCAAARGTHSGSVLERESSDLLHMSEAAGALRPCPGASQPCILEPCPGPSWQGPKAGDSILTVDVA
PKD1 kinase inh = PKD1 (human) kinase inhibition. PKD1 kinase fluorescence polarization assay. Q15139. inhibition, %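 (about 10 µM by stock and volumes)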. actives 0.056% (n = 200,000);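 active = inhibition of 50% or more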;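 note: controls were vehicle for no effect and a reference inhibitor for full effect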
RGS16-Gao HTS = RGS16-Galphao interaction regulator (human); O15492+P09471; bead-based flow cytometry RGS16-Galphao binding, fluorescence; actives lie on both sides; binding response (% of control), % at 10 µM; actives 0.38% (n = 220,000); AID 1441;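 active = below 25% or above 175%, edge rows of some plates excepted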;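 note: Galphao activated by GDP with aluminum fluoride before binding; 100% = wells without compound and 0% = beads without RGS; some results beyond the cut were filed as inactive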
Target sequence (O15492 whole entry, looked up): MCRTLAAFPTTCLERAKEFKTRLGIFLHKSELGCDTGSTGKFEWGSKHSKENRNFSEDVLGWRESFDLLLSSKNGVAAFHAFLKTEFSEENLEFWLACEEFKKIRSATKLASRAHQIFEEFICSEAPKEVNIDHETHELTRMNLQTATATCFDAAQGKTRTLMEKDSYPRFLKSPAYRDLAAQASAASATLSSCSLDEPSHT
Target sequence (P09471 whole entry, looked up): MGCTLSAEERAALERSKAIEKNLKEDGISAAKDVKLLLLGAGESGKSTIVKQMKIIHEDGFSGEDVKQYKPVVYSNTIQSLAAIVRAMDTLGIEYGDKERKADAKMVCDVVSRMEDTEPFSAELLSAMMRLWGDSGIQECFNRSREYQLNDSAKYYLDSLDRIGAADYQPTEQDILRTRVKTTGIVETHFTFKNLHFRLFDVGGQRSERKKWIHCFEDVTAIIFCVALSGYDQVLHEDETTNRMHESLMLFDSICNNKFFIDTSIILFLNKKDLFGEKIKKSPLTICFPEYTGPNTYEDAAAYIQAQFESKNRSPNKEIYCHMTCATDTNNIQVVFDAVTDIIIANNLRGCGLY
HSV augment = HSV replication enhancement. maximum fold increase. HSV replication augmentation in cells, fold increase. actives 0.005% (n = 220,000);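 active = peak rise of 1.5-fold or more in the series; inconclusive = self-fluorescent or not available for retest; tested in PC3 cells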;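 note: first round at 10 µM; read as green reporter fluorescence; hits show the peak of a series up to 25 µM; 1 = signal of infected wells without compound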
Insulin prom inh cell count = further read-out of Insulin prom inh, marked with its call; normalized cell count, %; measured here: cell count, toxicity; reference of the scale not given here;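 cells exposed to compound for 48 h; stained nuclei by imaging scaled within each plate; lower means fewer cells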
HSV augment primary fold = second read-out of HSV augment, no call of its own (marks repeat the call); fold increase; compound at 10 µM; measured here: primary screen fold increase 10 uM; tested in PC3 cells;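 GFP signal in the first replicate; 1 = infected wells without compound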
* = called active by the depositor; i = inactive; ? = inconclusive; . = no result given.

SMILES	Insulin prom inh	Insulin prom inh cell count	GALR2 ag	PKD1 kinase inh	RGS16-Gao HTS	HSV augment	HSV augment primary fold
COCC(C)n1c(SCC(=O)N2CCc3ccccc3C2)nc2ccccc2c1=O (configuration not stated)	-21	124	0.2	-4	67	i	0.84
NC(=NCCc1ccccc1)NS(=O)(=O)c1ccc2ccccc2c1	.	.	0.3	7	93	i	0.93
Cc1ccccc1NC(=S)N(CCN1CCOCC1)Cc1ccccc1F	7	72	.	-2	104	i	0.97
O=C(N/N=C/c1ccncc1)c1ccccc1	29	113	-0.2	2	104	i	0.95
CCOC(=O)N1CCC(NCCNC(=O)c2ccc(Cl)cc2)CC1	-29	113	-1.7	-1	103	i	0.95
CCOC(=O)CCc1nc2ccccc2[nH]1	.	.	-1.9	-5	108	i	0.91
CCCCCc1ccc(C(=O)CCCC)c(=S)[nH]1	-70	85	.	0	102	i	0.96
O=C(NCc1ccco1)C1CCN(S(=O)(=O)N2CCC3(CC2)OCCO3)CC1	-7	93	-2.2	0	98	i	1.3
Cc1cc(C(=O)CN2C(=O)NC(C)(CC(C)C)C2=O)c(C)n1-c1ccc2c(c1)OCO2 (configuration not stated)	.	.	0.3	0	99	i	1
O=C(/C=C/c1cccs1)Nc1cccc(NC(=O)/C=C/c2cccs2)n1	.	.	-1.2	6	97	i	0.82
Cc1cc(C)n(-c2ccc(Cl)c(C(=O)NCc3ccccc3)n2)n1	-47	85	.	0	97	i	0.96
Cc1cc(C)nc(NS(=O)(=O)c2ccc(NS(=O)(=O)c3ccccc3)cc2)n1	-44	71	-0.9	17	103	i	0.59
Cc1cc(C(N)=O)c2cc(Br)ccc2n1	-24	157	-0.4	-18	95	i	0.94
Cc1c(NC(=S)NNC(=O)CCC(=O)O)c(=O)n(-c2ccccc2)n1C	.	.	.	.	93	i	0.99
CCC(=O)c1ccc(N2CCN(C(=O)c3ccccc3F)CC2)c(F)c1	.	.	.	-1	100	i	0.96
CC1(C)SC2C(NC(=O)COc3ccccc3)C(=O)N2C1C(=O)O (configuration not stated)	-7	166	.	-1	104	i	1.1
CC1CN(C(=O)/C=C/c2cccc([N+](=O)[O-])c2)CC(C)O1 (configuration not stated)	-67	79	-2.9	7	.	i	0.99
Cc1sc2nc(-c3ccccc3)[nH]c(=O)c2c1-c1ccccc1	57	136	-0.2	7	103	i	0.95
CC(=O)c1cc(CN2CCC(N3CCC(C(=O)NC(C)C)CC3)CC2)cs1	13	140	.	-1	104	i	1
CNC(=O)/C(=N\O)c1ccccc1	9	115	-1.4	-10	97	i	1.2
Fc1ccccc1CCNc1c2c(nc3ncnn13)CCCC2	11	89	.	2	96	i	0.86
COc1cc(C2C(C#N)=C(N)Oc3cc(C)oc(=O)c32)cc(OC)c1OC (configuration not stated)	.	.	.	.	98	i	1.1
CN1CCN(NC(=O)c2cc([N+](=O)[O-])cc([N+](=O)[O-])c2)CC1	.	.	-3.0	-15	111	i	1.1
CC(C)[C@H](NC(=O)c1ccccc1)C(=O)OCC(=O)c1ccc2c(c1)NC(=O)CO2	.	.	-1.4	-4	86	i	0.91
COc1ccccc1-c1cc(C(=O)Nc2cc(C)n(Cc3ccc(Cl)cc3)n2)no1	29	136	-3.2	-10	105	i	0.75
O=C(N/N=C/c1ccco1)c1ccc(C(=O)N/N=C/c2ccco2)o1	-28	114	.	-3	102	i	1
CCCCNC(=S)NC(C)(C)CO	.	.	.	-6	100	i	0.93
CC1=CC(C)(C)Nc2ccc(OC(=O)CN3C(=O)c4cccc5cccc(c45)C3=O)cc21	.	.	-0.5	-1	88	.	.
O=C(CSc1nc2ccccc2c(=O)[nH]1)c1ccc(O)cc1O	.	.	.	-3	93	i	1.2
Cc1ccc(-c2nn3c(C)nnc3s2)cc1NC(=O)c1cccnc1	-277	69	-2.1	-3	97	i	0.92
CN(C)c1ccc(/C(=N\O)c2ccccc2)cc1	-35	103	-1.0	-8	103	i	1
O=C(CNC(=O)c1ccc([N+](=O)[O-])cc1)c1ccccc1	-70	54	-2.8	10	102	i	1
O=C(/C=C/c1ccc(S(=O)(=O)N2CCOCC2)cc1)NC(=S)Nc1ccc(N2CCOCC2)cc1	-43	86	-0.5	-9	104	i	0.84
C=CCNc1nc(N)c(C(=O)Nc2cc(C)on2)s1	13	70	0.0	-2	103	.	.
N#Cc1c(CSCC(=O)O)cc(=O)n2c1[nH]c1ccccc12	.	.	.	.	104	?	.
Cc1cccc(NC(=O)c2cc3cc([N+](=O)[O-])ccc3s2)n1	9	95	.	-8	98	i	1.1
CCCCN1C(=O)C(O)(CC(=O)c2ccccn2)c2ccccc21 (configuration not stated)	17	48	.	5	106	i	1
COC(c1ccccc1)c1nnc(CCC(=O)N(C)C(C2CC2)C2CC2)o1 (configuration not stated)	.	.	.	2	107	i	1
CCC(C)NC(=O)C(=O)NCc1ccccn1 (configuration not stated)	.	.	.	-1	102	i	0.98
Cc1ccc(S(=O)(=O)O)c(C)c1N1CCCC1=O	3	72	-1.7	-9	99	i	0.82
CCc1ccccc1N1CSC2=C(C#N)C(c3ccccc3F)CC(=O)N2C1 (configuration not stated)	.	.	-1.5	-6	72	i	0.92
Cc1cc(NC(=O)COC(=O)C2CCC2)no1	43	115	.	0	92	i	0.91
O=C1CSC(c2cccc([N+](=O)[O-])c2)N1CCN1CCCCC1 (configuration not stated)	.	.	.	-6	104	i	1
CCCC(=O)N1CCc2cc(OC)c(OC)cc2C1c1cc2cc3c(cc2[nH]c1=O)OCO3 (configuration not stated)	25	104	-0.8	0	.	i	1.1
Cc1cc(NCCN(C)C)n2nc(-c3cccs3)cc2n1	14	169	0.2	3	97	i	1.3
OC[C@H]1O[C@@H](n2cnc3c(NC4CCCC4)ncnc32)[C@H](O)[C@@H]1O	38	164	0.2	-2	104	i	0.84
O=S(=O)(c1ccc(N2CCC(c3ccc(Cl)cc3)=N2)cc1)N(CCO)CCO	-64	138	90*	5	103	i	0.8
O=C1OCC2=C1C(c1ccccc1)CC(=O)N2c1ccc(F)cc1 (configuration not stated)	.	.	.	3	93	i	0.86
Cc1ccc(NC(=O)c2cc3c(=O)oc4ccccc4c3s2)nc1	33	106	-2.2	-9	107	i	1
O=C(CSc1nc2ccc([N+](=O)[O-])cc2[nH]1)c1ccc(Cl)cc1	4	86	-1.2	4	102	i	0.71

4 entries from above in a different format.
> Cc1cccc(NC(=O)c2cc3cc([N+](=O)[O-])ccc3s2)n1
  Insulin prom inh = 9 | Insulin prom inh cell count = 95 | GALR2 ag = . | PKD1 kinase inh = -8 | RGS16-Gao HTS = 98 | HSV augment = i | HSV augment primary fold = 1.1
> CCCCN1C(=O)C(O)(CC(=O)c2ccccn2)c2ccccc21 (configuration not stated)
  Insulin prom inh = 17 | Insulin prom inh cell count = 48 | GALR2 ag = . | PKD1 kinase inh = 5 | RGS16-Gao HTS = 106 | HSV augment = i | HSV augment primary fold = 1
> COC(c1ccccc1)c1nnc(CCC(=O)N(C)C(C2CC2)C2CC2)o1 (configuration not stated)
  Insulin prom inh = . | Insulin prom inh cell count = . | GALR2 ag = . | PKD1 kinase inh = 2 | RGS16-Gao HTS = 107 | HSV augment = i | HSV augment primary fold = 1
> CCC(C)NC(=O)C(=O)NCc1ccccn1 (configuration not stated)
  Insulin prom inh = . | Insulin prom inh cell count = . | GALR2 ag = . | PKD1 kinase inh = -1 | RGS16-Gao HTS = 102 | HSV augment = i | HSV augment primary fold = 0.98

Further compounds:
SMILES	Insulin prom inh	Insulin prom inh cell count	GALR2 ag	PKD1 kinase inh	RGS16-Gao HTS	HSV augment	HSV augment primary fold
Cc1ccc(Cn2c(SCc3cccnc3)nc3c2c(=O)n(C)c(=O)n3C)cc1	43	104	2.0	-7	100	i	0.97
Cc1cc(Oc2ccc(Cl)cc2)nc(-c2ccccn2)n1	.	.	.	.	100	i	1
O=C(Nc1ccc2c(c1)OCO2)c1ccc2c(c1)OCO2	-26	92	-0.5	3	98	i	1.1
COc1cc(CNCCN2CCOCC2)ccc1OCc1c(Cl)cccc1Cl	-26	74	-1.3	-4	152	i	0.84
O=[N+]([O-])c1ccc(N/N=C/c2cn(-c3ccccc3)nc2-c2ccccc2)cc1	-96	82	0.1	-13	106	?	.
CC(=O)Nc1ccc(/C=N/N2CCCCC2)cc1	.	.	.	-6	95	i	0.9
Cc1cccc(NCc2ccccc2O)c1C	43	75	-4.2	9	147	i	1
CC1CCCN(CC(O)COc2ccc(Cl)cc2)C1 (configuration not stated)	.	.	-1.8	-3	128	i	1
COC(=O)c1oc2ccccc2c1NC(=O)c1ccccc1O	.	.	.	-6	99	i	0.94
Cc1ccccc1C1C(C#N)=C2N=C(N)c3c(sc4c3CCCCC4)N2C2=C1C(=O)CCC2 (configuration not stated)	.	.	1.0	0	97	i	1.1
O=C1C2C(C(=O)N1Cc1ccco1)C1C=CC2C12CC2 (configuration not stated)	-13	35	-0.4	-10	97	i	1
C/C(=N\O)c1ccc2[nH]ccc2c1	.	.	-0.2	-7	99	i	0.95
O=C(CC(c1ccccc1)c1ccco1)N1CCCCC1 (configuration not stated)	.	.	.	-6	100	i	0.99
OCC1OC(n2cnc3ccccc32)CC1O (configuration not stated)	.	.	.	.	92	i	1
CCc1nc2ccccc2n1CC(=O)Nc1cc(C)on1	-12	117	.	-5	84	i	0.98
O=C(CNC(=O)c1cccc(F)c1)N/N=C/c1ccc([N+](=O)[O-])s1	-7	100	.	5	101	i	0.82
N#CC(C#N)=C1C=CC=CN1/C(=C\c1ccccc1Cl)C(=O)c1ccccc1	-261	21	-2.2	-3	77	i	1.1
COc1ccc(C(=O)N/N=C(\Cc2ncc[nH]2)c2ccccc2)cc1	-50	111	.	-1	98	i	0.93
C=CCNS(=O)(=O)c1ccc(OC)c(C)c1	2	60	0.9	-12	104	i	0.98
Cc1noc(C)c1COC(=O)Cc1ccc(Cl)c(Cl)c1	8	126	-1.6	-19	104	.	.
COc1ccc2cc(/C=N/NC(=O)c3ccc(CN(c4cccc(Cl)c4Cl)S(C)(=O)=O)cc3)c(Cl)nc2c1	44	136	-0.6	4	71	i	0.91
O=C(O)c1ccccc1N/N=C/c1c(Sc2nnnn2-c2ccccc2)nc2ccccn2c1=O	.	.	.	.	108	?	.
N#C/C=C1\Sc2ccccc2C(=O)N1CC(=O)N1CCN(S(=O)(=O)c2ccccc2)CC1	30	126	0.5	-12	97	i	1.1
O=C(Cn1c2[n+](c3ccccc31)CC(O)CS2)c1ccccc1 (configuration not stated)	.	.	.	-5	93	i	0.99
c1ccc(-c2ccccc2-n2cnnn2)cc1	17	74	0.0	-2	101	i	0.79
Nc1c(C(=O)c2ccccc2)oc2ccc([N+](=O)[O-])cc12	.	.	.	.	106	i	0.99
O=[N+]([O-])c1cccc(N/N=C/c2cccc(O)c2O)c1	-27	41	.	13	95	i	0.76
CCCCOC(=O)Nc1cc(C(=O)OC)ccc1C(=O)OC	65*	95*	-2.2	-5	104	i	0.88
Cc1ccc(-c2nnn(CC(=O)N3CCN(c4nc5ccccc5s4)CC3)n2)cc1	-3	108	-2.9	-5	98	i	0.96
CCC(C)[C@H](NC(=O)NCc1ccc(F)cc1)C(=O)O (some centres not stated)	.	.	.	.	106	i	1
NC(=O)C1(C(N)=O)OC1c1ccccc1 (configuration not stated)	.	.	.	.	99	i	0.95
COc1cccc(N2CC(C(=O)Nc3c(C)cccc3C)CC2=O)c1 (configuration not stated)	-362	26	-1.1	0	103	i	1
COC(=O)c1cc(-c2ccc(OC)cc2)n[nH]1	.	.	.	0	102	i	0.91
O=C1N(c2ccc(Cl)cc2)C(c2ccccc2)N2CCCN12 (configuration not stated)	.	.	-0.6	-8	150	i	1.2
O=C(C(Cl)Cl)N1CCN(c2ccccn2)CC1	43	127	-0.7	0	100	i	0.99
COc1ccc(CC(=O)OCC(=O)Nc2ccc3c(c2)OCO3)cc1OC	.	.	.	-7	97	i	0.95
COc1ccc(-n2c(C)c(C(C)=O)c3cc(O)ccc32)cc1	.	.	-2.2	-7	101	.	.
O=C1CC(Sc2ccc(Cl)cc2)C(=O)N1Cc1ccncc1 (configuration not stated)	.	.	.	.	98	i	1.1
CCN1CCCC1CNC(=O)Cn1cnc2ccc(S(=O)(=O)N3CCC(C)CC3)cc2c1=O (configuration not stated)	.	.	-1.9	8	106	i	1.1
